Rango dissoc inh: prevents RanGTP from dissociating the Rango-importin beta complex | O95149+P62826 | Biochemical FRET Rango-importin beta, RanGTP-induced dissociation | Potency, µM (doses to about 46.1 µM), inactives show at the top dose activity change, negative = inhibition | hit rate 0.071% among 340,000 | AID 540253; active means falling FRET ratio curve, often poorly fitted, with flat reads before Ran was added; inconclusive means other falling curves, or compound fluorescence or quenching; inactive means flat or rising ratio curve;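 further: potency means the concentration at half of the fitted maximal effect; % of control where 0% means no effect; nearly all actives have a fitted effect of over 45% in size; -100% = wells without RanGTP and RCC1; the record marks most hits as doubtful in a second field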
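Compounds preincubate 5 min with complex of recombinant Rango and importin beta in PBS with 1 mM DTT. Ran (0.6 uM) loaded with 2 mM GTP plus 0.2 uM RCC1 starts dissociation; FRET is recorded 45 min later.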
GLA inh pH 4.5: alpha-galactosidase A (human) inhibition, pH 4.5; P06280; purified enzyme, 4-MU-alpha-Gal fluorescence, pH 4.5; activity change, negative = inhibition, % at 105 µM; 230,000 tested, under 10 active; AID 1467; inconclusive = small, poorly fitted or top-dose-only inhibition, or a rising curve; inactive = flat fitted curve, though single readings scatter; no compound was filed as active;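 further: 0% = full activity with enzyme and -100% = basal without enzyme; dose as in the result columns while the protocol names 77 µM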
Target sequence (P06280 whole entry, looked up): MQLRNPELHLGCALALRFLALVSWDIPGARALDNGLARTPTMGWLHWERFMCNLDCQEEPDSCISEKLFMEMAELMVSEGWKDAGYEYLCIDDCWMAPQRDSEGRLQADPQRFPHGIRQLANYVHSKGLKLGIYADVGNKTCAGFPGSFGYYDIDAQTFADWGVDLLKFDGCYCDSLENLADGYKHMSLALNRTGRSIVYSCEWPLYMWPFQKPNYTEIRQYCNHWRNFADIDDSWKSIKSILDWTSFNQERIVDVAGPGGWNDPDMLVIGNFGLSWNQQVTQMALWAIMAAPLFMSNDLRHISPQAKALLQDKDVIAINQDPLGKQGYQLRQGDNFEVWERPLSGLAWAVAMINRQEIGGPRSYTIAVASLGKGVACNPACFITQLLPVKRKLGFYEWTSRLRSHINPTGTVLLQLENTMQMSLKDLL
miR-21 FLuc: miR-21 reporter, rising signal. HeLa miR-21 FLuc reporter, luciferase, 48 h. Potency, µM (series often up to 38.3 µM), without a hit: top-dose reporter change, positive = more light. 340,000 tested, under 10 active; active = well fitted rising curve with a large enough effect; inconclusive = small, poorly fitted or top-dose-only effect; inactive = no such curve, though single readings can be large or run the other way;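 further: % of control where 0% means no effect; miR-21 action dims this reporter so a rising signal means less miR-21 action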
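Luminescence from a firefly luciferase reporter carrying a miR-21 binding site downstream, stably expressed under a CMV promoter in HeLa cells that make miR-21 endogenously, reports miRNA modulation after 48 h compound exposure up to approximately 40uM final.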
Rango-impB inh: inhibitors of Rango-importin beta complex formation. AID 540263. hit rate 0.031% among 340,000. Potency, µM (titrated, usually from 92.2 µM), for inactives: at the highest dose inhibition of complex formation. Rango CFP/YFP FRET sensor + importin beta, 45 min. Q14974; active = rising FRET ratio curve, often small or poorly fitted; inconclusive = mostly compound fluorescence or quenching in the first reads; inactive = flat curves in all reads;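 further: potency means the concentration at half of the fitted maximal effect; 0% = DMSO wells and 100% = buffer wells lacking importin beta; nearly all actives have a fitted effect of over 15% in size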
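FRET biosensor (snurportin 1 IBB flanked by EYFP and cerulean), 50 nM, with compound 5 min, then 0.125 microM importin beta in PBS, 1 mM DTT, 0.02% Tween-20, 0.1% BSA. CFP/YFP ratio read after 45 min at room temperature; pre-read flags interference.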
* hit, by the source's call; ? = inconclusive; nt = no result given; & = joins results of further samples. Only part of the results is shown; rates above refer to the full screens.

cpd	SMILES	Rango dissoc inh	GLA inh pH 4.5	miR-21 FLuc	Rango-impB inh
1	Cc1ccccc1-c1cc2c(nn1)-c1ccccc1C2=O	10%	-7	-24%	0.9%
2	CCn1c(COc2ccccc2)nnc1SCC(=O)NC1CCCCC1	33%	-7	-3%	-3.0%
3	CC1CCN(c2c(NCc3ccc(C(=O)NCc4ccccc4)cc3)c(=O)c2=O)CC1	-1%	-4	0%	4.2%
4	C=CCn1c(COc2ccccc2OC)nc2ccccc21	22%	nt	-40%	0.8%
5	Cc1ccc(C)c(S(=O)(=O)N/N=C2/CCCc3ccccc32)c1	-11%	-1	1%	7.0%
6	O=C(OC1CCCCC1=O)c1cccc(S(=O)(=O)N2CCOCC2)c1 (stereo not given)	9%	nt	nt	3.3%
7	CC(=O)NCCOC(=O)Nc1ccncc1	-9%	0	1%	3.9%
8	COC(=O)Cn1cnc2c(C#N)c3n(c2c1=O)CCCCC3	6%	9	-5%	-3.7%
9	Cc1sc2nc(COC(=O)c3ccc(Cl)c(N)c3)[nH]c(=O)c2c1C	7%	0	-6%	-1.2%
10	Cc1cccc(NC(=S)N2CCC(c3nc4ccccc4o3)CC2)c1C	20%	4	-4%	-1.6%
11	CCOC(=O)c1sc(NC(=O)CSc2nccc(C)n2)nc1C	5%	?	-1%	-1.3%
12	O=C(Nc1ccccc1N1CCOCC1)c1cc(-c2ccncc2)nc2ccccc12	-12%	-2	15%	-3.1%
13	COC(=O)c1ccc(OC(=O)c2ccc(OC)c(OC)c2)c(OC)c1	-29%	-16	-13%	-3.3%
14	CNC(=O)c1ccsc1NC(=O)CCS(=O)(=O)c1ccccc1	-6%	-3	0%	4.0%
15	Cc1cccc(N2CCN(C(=O)Cc3ccccc3[N+](=O)[O-])CC2)c1C	-3%	nt	-37%	0.9%
16	O=C(COC(=O)/C=C/c1nc2ccccc2s1)Nc1cccc(Cl)c1Cl	6%	-3	3%	-2.9%
17	CC(=O)c1c(C)[nH]c(C(=O)Nc2cc(C)ccc2C)c1C	2%	-3	-7%	-2.9%
18	Cc1ccc(NC(=O)C(CC(C)C)NC(N)=O)cc1Cl (stereo not given)	?	-5	-5%	2.7%
19	O=C(Nc1ccc2c(c1)OCO2)C1CCN(C(=O)CSc2ncnc3ccccc23)CC1	14%	3	-23%	-3.5%
20	c1ccc2oc(CCc3nc4ccccc4o3)nc2c1	1%	4	-21%	13%
21	COC(=O)[C@@H]1C[C@@]2(O)[C@H](O)[C@H](O)[C@H](O)C[C@H]2N1Cc1ccc(-c2ccccc2)cc1	1%	0&0	1%	3.9%
22	N#Cc1c(-c2ccc3c(c2)OCO3)cc[nH]c1=O	-2%	nt	0%	1.0%
23	COC(=O)C1=C(O)C(C(=O)OC)C(c2ccc(C)cc2)C(C#N)(C#N)C1c1ccc(C)cc1 (stereo not given)	0%	-4	2%	5.4%
24	CCCSc1nsc(NC(=O)Nc2ccc(F)cc2F)n1	-8%	nt	-18%	-0.7%
25	C/C(=C\C(=O)OCCCCCCCCC(=O)O)C[C@@H]1OC[C@H](C[C@@H]2O[C@H]2[C@@H](C)[C@H](C)O)[C@@H](O)[C@H]1O	-7%	nt	nt	5.1%
26	Nc1nonc1-n1nnc(C(=O)N/N=C/c2cccs2)c1CSc1ccccc1	27%	nt	0%	0.8%
27	COc1ccccc1N1CCN(Cc2cc(=O)c(OCC(=O)NC(C)C)co2)CC1	3%	nt	0%	-0.8%
28	CCCCC(c1nnnn1C(C)C)N1CCN(C(=O)c2ccco2)CC1 (stereo not given)	-8%	nt	-6%	6.5%
29	CC(=O)c1cccc(Nc2nc(=O)c3cccnc3s2)c1	5%	-13	-33%	2.8%
30	Cc1cccc(NC(=O)c2oc(=O)c3ccccc3c2-c2ccccc2)c1C	0%	8	-6%	5.8%
31	C=CCN=c1scc(-c2ccccc2)n1/N=C/c1ccccn1	?	6	13%	?
32	O=C(Nc1ccccc1N1CCN(C(=O)c2ccc(Cl)cc2)CC1)c1ccc(Br)cc1	-6%	-3	5%	2.4%
33	COc1ccccc1C(=O)Nc1ccc(CN2CCCCC2)cc1	?	0	-20%	-3.8%
34	COc1cc(NCc2ccccc2)c2ncn(C(C)C)c2c1	1%	nt	nt	2.7%
35	CC(C)N(Cc1ccccc1)C(=O)CSc1nccn1C	2%	-8	-4%	-6.7%
36	CC1CC(OC(=O)c2ccccc2C(=O)c2ccc(Cl)cc2)C(=O)O1 (stereo not given)	1%	nt	nt	0.3%
37	CC(C)(C)NC(=O)CCn1nc(-c2ccc(Cl)cc2)c2ccccc2c1=O	-7%	nt	-1%	-2.0%
38	COc1ccc2c3c([nH]c2c1)C(C)N(C(C)=O)CC3 (stereo not given)	-13%	2	1%	-1.0%
39	O=C(NC1=NCCS1)c1cccc(OC(F)F)c1	13%	4	-31%	5.4%
40	NC(=O)c1ncn([C@@H]2O[C@H](CNCc3cccn3-c3ccncc3)[C@@H](O)[C@H]2O)n1	-11%	nt	nt	-6.7%
41	Cc1ccnc2nc(C(=O)OCC(=O)NC(=O)NCc3ccco3)nn12	26%	9	2%	0.8%
42	COc1cc2c(cc1NC(=O)C(C)N1CCN(S(=O)(=O)c3ccc(C)c(C)c3)CC1)oc1ccccc12 (stereo not given)	5%	6	-13%	1.4%
43	COc1ccc(Cl)cc1-c1nc(SCC(=O)N(C)C2CCS(=O)(=O)C2)n[nH]1 (stereo not given)	13%	nt	nt	-3.5%
44	Oc1ccc(/C=N/Nc2nc(N3CCCC3)nc(N3CCCC3)n2)cc1O	6%	3	-13%	4.7%
45	CCCCC(=O)Nc1ccc2c(c1)nc(CCNC(=O)c1ccco1)n2C	1%	nt	-19%	-3.3%
46	COc1ccc(/C=C/C(=O)OCC(=O)N(C)c2c(N)n(Cc3ccccc3)c(=O)[nH]c2=O)cc1OC	4%	nt	nt	1.3%
47	Cc1cc(C(=O)Nc2c[nH]c(=O)[nH]c2=O)ccc1[N+](=O)[O-]	-12%	-8	-1%	-0.4%
48	CCn1nc(NC(=O)c2ccco2)c2cc3ccccc3nc21	?	3	8%	?
49	O=C(O)c1cccnc1C(=O)c1ccccc1	8%	nt	nt	-2.7%
50	O=C(O)CCN1CCOCC1	1%	8	4%	-3.3%

(listing goes on)
cpd	SMILES	Rango dissoc inh	GLA inh pH 4.5	miR-21 FLuc	Rango-impB inh
51	CC(=O)c1ccc(OC(C)C(=O)OCC(=O)NCCc2ccccc2)cc1 (stereo not given)	-1%	nt	nt	-1.6%
52	CC1CC(C)C(=O)C(C(CC2CC(=O)NC(=O)C2)OC(=O)CC(=O)c2ccccc2)C1 (stereo not given)	1%	nt	nt	-0.3%
53	CS(=O)(=O)N(CC(=O)N1CCCC1)Cc1ccc(Cl)cc1	20%	7	-2%	5.9%
54	CCC(=O)N1CCc2cc(S(=O)(=O)CCC(=O)Nc3nc(C)cs3)ccc21	-14%	4	-1%	-0.1%
55	CCOC(=O)c1cc(-c2ccccc2)sc1NC(=O)C(C)OC(=O)c1cccc(S(=O)(=O)N(C)C)c1 (stereo not given)	-4%	1	-6%	-2.7%
56	CCN(CC)S(=O)(=O)c1ccc2[nH]c(=O)cc(C(=O)N(C)C3CCS(=O)(=O)C3)c2c1 (stereo not given)	-1%	nt	nt	0.3%
57	CS(=O)(=O)c1ccc(Cl)c(S(=O)(=O)NCc2ccccc2)c1	-10%	-1	1%	-0.5%
58	CN(CC(=O)Nc1ccccc1Cl)C(=O)COC(=O)Cc1c(F)cccc1Cl	-14%	nt	2%	-0.4%
59	C#CCOCCOCCOCCNc1nc(N2CCN(C(=O)[C@H](CCCN=C(N)N)n3cc(C(N)[C@@H](C)CC)nn3)CC2)nc(N2CCN(C(=O)[C@H](CCC(=O)O)n3cc([C@@H](N)[C@H](C)CC)nn3)CC2)n1 (stereo not given in full)	3%	nt	nt	1.1%
60	CCN(CC)C(=O)CSc1nc(C)cc(C)c1C#N	0%	-21	-8%	5.0%
61	O=C(Nc1ccc2ccccc2c1)c1cccc2ccccc12	0%	nt	nt	-0.7%
62	C=CCOc1cccc(CNc2ccc3[nH]c(=O)[nH]c3c2)c1	26%	-4	10%	-3.3%
63	Cc1ccc(NC(=S)N(CCN(C)C)C(C)c2ccco2)c(C)c1 (stereo not given)	4%	3	-3%	-2.8%
64	O=c1c2cc([N+](=O)[O-])ccc2nc2n1CCCC2	1%	nt	1%	2.3%
65	Cc1ccc(S(=O)(=O)NNC(=O)NC23CC4CC(CC(C4)C2)C3)cc1	-8%	0	-9%	1.4%
66	O=C(Nc1cccc(-n2cnnn2)c1)C1CCCN(Cc2cccc(C(F)(F)F)c2)C1 (stereo not given)	-4%	nt	16%	4.8%
67	COCCCN(C(=O)c1cc2c(s1)CCC2)c1c(N)n(Cc2ccccc2)c(=O)[nH]c1=O	-15%	1	-10%	-1.9%
68	CCCCC1=CC2=CC(=O)C(C)(OC(=O)CC)C(=O)C2=CN1C1CCCCC1 (stereo not given)	-22%	11&-13	-5%	?
69	O=C(Nc1ccc(S(=O)(=O)N2CCN(Cc3ccccc3)CC2)cc1)c1cnccn1	14%	-5	3%	0.4%
70	COc1nnc(-c2ccc(C)c(S(=O)(=O)N(C)C)c2)c2ccccc12	-3%	nt	-1%	-0.4%
71	O=C(NCCCN1CCCC1)c1ccc(CS(=O)(=O)c2ccc(Br)cc2)o1	32%	2	-1%	-3.5%
72	Cc1c(NC(=O)C(C)c2ccc(CC(C)C)cc2)c(=O)n(-c2ccccc2)n1C (stereo not given)	0%	-1	3%	-1.5%
73	NS(=O)(=O)c1cccc(NC(=O)c2ccc(NS(=O)(=O)c3cccc([N+](=O)[O-])c3)cc2)c1	-15%	nt	nt	1.7%
74	COc1ccc(NC(=O)N(C)C[C@H]2Oc3c(NC(=O)C4CCCCC4)cccc3C(=O)N([C@H](C)CO)C[C@@H]2C)cc1	15%	nt	nt	-1.9%
75	CCC1(C)Cc2ccccc2C(Nc2c(C)n(C)n(-c3ccccc3)c2=O)=N1 (stereo not given)	4%	0	-1%	1.0%

Reformatted with one line to a screen: part of the list above
1. Cc1ccccc1-c1cc2c(nn1)-c1ccccc1C2=O
2. CCn1c(COc2ccccc2)nnc1SCC(=O)NC1CCCCC1
3. CC1CCN(c2c(NCc3ccc(C(=O)NCc4ccccc4)cc3)c(=O)c2=O)CC1
4. C=CCn1c(COc2ccccc2OC)nc2ccccc21
5. Cc1ccc(C)c(S(=O)(=O)N/N=C2/CCCc3ccccc32)c1
assay / compound,1,2,3,4,5
Rango dissoc inh,10%,33%,-1%,22%,-11%
GLA inh pH 4.5,-7,-7,-4,nt,-1
miR-21 FLuc,-24%,-3%,0%,-40%,1%
Rango-impB inh,0.9%,-3.0%,4.2%,0.8%,7.0%

Later entries
cpd	SMILES	Rango dissoc inh	GLA inh pH 4.5	miR-21 FLuc	Rango-impB inh
76	O=C1OC(c2cccs2)=N/C1=C/c1ccc(-c2cccc(C(=O)O)c2)o1	15%	-9	0%	9.0%
77	COc1cc2c(c(O)c1OC)-c1c(cc(OC)c(OC)c1O)[C@@H](OC(=O)c1ccccc1)[C@@](C)(O)[C@@H](C)[C@@H]2OC(C)=O	nt	-5	-2%	nt
78	Cc1cc(C)c2c(Cn3ccnc3)cc(=O)oc2c1	0%	nt	0%	-1.2%
79	O=C(N1CCOCC1)N1CCN(c2ccccc2F)CC1	5%	-4	-2%	0.9%
80	Cc1cc(NC(=O)CCC(=O)N(CC(=O)NC2CCCC2)c2ccc(Cl)cc2)no1	0%	nt	2%	-1.3%
81	Cc1ccc(C(=O)/C=C/Nc2ccc(S(=O)(=O)Nc3onc(C)c3C)cc2)cc1	-29%	-4	-48%	?
82	CC1CCCN(C(=O)Cc2ccc(F)cc2)C1 (stereo not given)	-15%	-4	-3%	3.5%

Compound activity: PubChem, National Center for Advancing Translational Sciences (NCATS)
